TRPML1 agonist = agonists of human TRPML1 channel. AID 624414. activation, % (test concentration not listed). actives 0.12% (n = 410,000). TRPML1-expressing cells, Ca2+ dye fluorescence, FDSS; host cell line not named in the record; reference of the full effect not given here; in the data active = activation above about 50%; inconclusive = about 30% to 50%; inactive = below about 30%; also: 0% is about no effect; the text of the record puts the active cut at 80%
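Tetracycline-induced TRPML1-DL cells are seeded and incubated overnight before loading with a no-wash Ca2+ dye and quencher. Agonist activity is taken from the 110 s fluorescence read following compound pin-transfer on an FDSS, before EC80 54-4 challenge.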
PINK1 modulator = PINK1 expression modulation; PINK1 immunofluorescence, high-content cytometry, 24 h; Potency, µM (highest dose often 76.6 µM), for the others: at the highest dose activation (PINK1 increase), hits mostly activators; actives 0.2% (n = 410,000); AID 624263; active = well fitted activation curve with a large enough effect; inconclusive = small, poorly fitted or top-dose-only effect; inactive = flat fitted curve, though single readings scatter; cell line not stated here;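 also: potency is read from the fitted curve at half-maximal effect; % of control where 0% means no effect; nearly all actives have a fitted effect of over 65% in size; a mitochondrial uncoupler was the plate control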
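Fluorescence from anti-PINK1 antibody, together with nuclear and cell stains, was scanned on a laser-scanning cytometer. Before staining, stable-line cells were incubated 24 hours with compounds at 5 concentrations; primary antibody 12 h at 10 degrees C.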
D2 ag = human D2 receptor agonism in beta-arrestin assay; AID 624465; actives 0.084% (n = 360,000); DiscoveRx PathHunter D2 beta-arrestin, luminescence, 90 min; 100% = 57 uM dopamine signal; activation, % (concentration not given with the values); in the data active = activation above about 40%; inconclusive = about 15% to 40%; inactive = below about 15%; also: compound concentration not given in the record; the text of the record calls up to 30% inactive
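DiscoveRx PathHunter D2 beta-arrestin cells (2,100/well) attached overnight, then compound-stimulated 90 min at 37 C in HBSS/10 mM HEPES/0.1% Tween-20 buffer; beta-galactosidase complementation read by luminescence after 1 h at ambient temperature. Dopamine 57 uM final (EC100) as control.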
CtBP-E1A inh = blocks the CtBP interaction with E1A; AlphaScreen GST-E1A/His-CtBP binding, 1536-well; stronger effect = lower value; control for the full effect not named in the record; activity change, % (test concentration not listed); actives 0.49% (n = 340,000); AID 651724; in the data active means activity change below about -65%; inconclusive means about -30% to -65%; inactive means above about -30%; also: % is scaled to controls: 0 for no effect and ±100 for the full control effect; compound concentration not given in the record
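Homogeneous bead-based format: GST-tagged E1A captured on glutathione donor beads, His-tagged CtBP on nickel acceptor beads; compounds precede bead addition by 2 h at 37 °C.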
Six1-Eya2 blk = blocks human Six1 binding to Eya2; Q15475+O00167; AlphaScreen GST-Six1/His-Eya2 binding, biochemical; stronger effect = lower value; control for the full effect not named in the record; activity change, % (concentration not given with the values); actives 0.56% (n = 360,000); AID 651725; in the data active = activity change below about -65%; inconclusive = about -30% to -65%; inactive = above about -30%; also: % is scaled to controls: 0 for no effect and ±100 for the full control effect
Target sequence (O00167 whole entry, looked up): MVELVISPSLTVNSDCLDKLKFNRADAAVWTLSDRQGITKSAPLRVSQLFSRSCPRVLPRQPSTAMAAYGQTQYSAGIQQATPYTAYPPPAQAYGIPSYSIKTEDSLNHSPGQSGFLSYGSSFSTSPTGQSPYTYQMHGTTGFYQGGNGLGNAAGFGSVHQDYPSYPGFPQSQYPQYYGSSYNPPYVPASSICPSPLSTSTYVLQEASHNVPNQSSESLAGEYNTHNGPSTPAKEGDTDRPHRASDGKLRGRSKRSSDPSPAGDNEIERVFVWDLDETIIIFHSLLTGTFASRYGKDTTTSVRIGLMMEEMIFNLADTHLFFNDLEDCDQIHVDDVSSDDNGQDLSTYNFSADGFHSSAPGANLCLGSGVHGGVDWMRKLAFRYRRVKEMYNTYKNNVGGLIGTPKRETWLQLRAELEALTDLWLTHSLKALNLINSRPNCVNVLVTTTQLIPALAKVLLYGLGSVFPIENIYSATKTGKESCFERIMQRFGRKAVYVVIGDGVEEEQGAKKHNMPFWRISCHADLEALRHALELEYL
Target sequence (Q15475 whole entry, looked up): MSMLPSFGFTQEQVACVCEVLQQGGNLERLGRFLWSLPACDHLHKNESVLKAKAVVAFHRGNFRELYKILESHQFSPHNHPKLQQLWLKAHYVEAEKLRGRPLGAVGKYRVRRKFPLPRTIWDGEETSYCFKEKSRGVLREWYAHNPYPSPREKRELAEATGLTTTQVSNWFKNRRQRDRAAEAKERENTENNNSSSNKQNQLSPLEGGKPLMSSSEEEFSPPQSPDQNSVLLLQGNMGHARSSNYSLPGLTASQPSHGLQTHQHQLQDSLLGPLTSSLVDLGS
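AlphaScreen with GST-Six1 and His-Eya2 (5X mix: 250 nM and 500 nM), glutathione donor and nickel acceptor beads; buffer 50 mM Tris pH 8.0, 300 mM NaCl, 1 mM TCEP; 1 h at 37 C in the dark.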
TRPML1 inh = human mucolipin-1 channel inhibition; Q9GZU1; AID 624415; activity change, negative = inhibition, % (no concentration beside the values); actives 0.02% (n = 390,000); TRPML1-inducible cells, Ca2+ dye fluorescence, FDSS; stronger effect = lower value; inhibition of EC80 agonist-evoked calcium signal; in the data active means activity change below about -50%; inconclusive means about -30% to -50%; inactive means above about -30%;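 also: stimulus is agonist 54-4 at its EC80 concentration; % is scaled to controls: 0 for no effect and ±100 for the full control effect; compound concentration not given in the record; the text of the record puts the active cut at -80%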
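TRPML1-DL cells, Tet-induced overnight (~16 h, 37 °C) at 1,500 cells/well, were loaded with Ca8 no-wash dye plus quencher for 45-90 min at room temperature. Compounds were pinned during FDSS kinetic reading; agonist 54-4 at EC80 (4 uM final) then added.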
* = called active by the depositor; ? = inconclusive; nt = no result given; [ ] = remark or other dose. Not a hit list; about 1% have a hit in one of these screens.

SMILES | TRPML1 agonist | PINK1 modulator | D2 ag | CtBP-E1A inh | Six1-Eya2 blk | TRPML1 inh
COc1ccc(-n2c(SCC(=O)N3CCCCC3C)nnc2-c2cccnc2)cc1 (configuration not stated) | -0.9 | -0.6% | -2.9 | -5 | 0 | -3
Cc1cc(C)cc(NC(=O)c2cnn(-c3ccccc3)c2C2CCNCC2)c1 | 0.1 | -0.9% | 0.8 | nt | 8 | -23
COc1ccc2c(c1)c(=O)c(S(=O)(=O)c1ccc(F)cc1)cn2CC(=O)Nc1ccc(C)cc1C | -0.9 | 0.8% | nt | nt | nt | 7
CCOC(=O)N1CCc2c(sc3c2c(=O)n(-c2ccc(CC)cc2)c(=O)n3CC(=O)Nc2ccc(C)cc2)C1 | 0.9 | 0.7% | nt | nt | nt | 25
O=C(NCCOc1ccccc1)C1CCC(=O)N(CCc2ccc(Cl)cc2)C1 (configuration not stated) | -0.8 | 0.6% | -2.3 | -1 | -1 | 9
Cc1ccc(CCNC(=O)CCn2nc(-c3ccccc3)ccc2=O)cc1 | 0.0 | -3.2% | nt | nt | nt | 4
Cc1cccc(N2CC(O)(c3cccs3)[N+]3=C2CCCCC3)c1 (configuration not stated) | 1.9 | 1.8% | -2.3 | -8 | 5 | -8
CC(=O)c1sc(NC(=O)c2ccc(F)c(S(=O)(=O)N3CCOCC3)c2)nc1C | -0.2 | 0.4% | -2.3 | -3 | 8 | -7
CC(=O)Nc1ccc(NC(=O)Nc2cccc(C)c2C)cc1 | -0.2 | 0.0% | -3.4 | 7 | 11 | 40
Cc1ccc(-c2csc3ncnc(N4CCN(Cc5ccccc5)CC4)c23)cc1 | nt | 2.8% | -2.1 | nt | 10 | nt
O=C(CCC(=O)NC1CCCCC1)Nc1cccnc1 | -0.6 | 2.3% | 1.7 | nt | 1 | 32
COC(=O)C1=CN(Cc2ccccc2)C=C(C(=O)OC)C1c1cc(F)ccc1F | 1.0 | 2.2% | -2.4 | 50 | 70 | 14
C#CCOCCOCCOCCNc1nc(N2CCOCC2)nc(N2CCN(C(=O)[C@H](CCCN=C(N)N)n3cc(C(N)[C@@H](C)CC)nn3)CC2)n1 (some centres not stated) | -0.8 | 0.8% | 0.0 | -1 | 4 | -11
Cc1ccc(NC(=O)COC(=O)Cn2c(C)csc2=O)cc1 | -0.7 | -0.1% | -1.6 | 4 | 0 | -1
COC(=O)N/N=C/c1ccc(OC(=O)c2ccco2)c(OC)c1 | 1.0 | 0.7% | 3.5 | 3 | 3 | 8

A few values from the entries so far:
Reading for `O=C(CCC(=O)NC1CCCCC1)Nc1cccnc1` under D2 ag: 1.7
Reading for `CC(=O)Nc1ccc(NC(=O)Nc2cccc(C)c2C)cc1` under TRPML1 agonist: -0.2
Reading for `Cc1cc(C)cc(NC(=O)c2cnn(-c3ccccc3)c2C2CCNCC2)c1` under TRPML1 agonist: 0.1

Continued.
SMILES | TRPML1 agonist | PINK1 modulator | D2 ag | CtBP-E1A inh | Six1-Eya2 blk | TRPML1 inh
COC(=O)C1=C(NC(=O)C(C)(C)C)CCS1 | 1.6 | 2.6% | -1.2 | -6 | -16 | -7
CCc1ccc(-c2cc(C(=O)N3N=C(C(F)F)CC3(O)C(F)F)c3ccccc3n2)cc1 (configuration not stated) | 3.5 | ? | -6.9 | 2 | -9 | 11
CCCCN(C)C(=O)c1nc2ccccn2c1CN1CCSCC1 | 0.1 | 0.0% | -4.0 | 3 | 0 | -2
O=C(CCc1ccccc1)N1CCN(c2ccc([N+](=O)[O-])cc2)CC1 | -0.2 | 1.2% | -0.1 | 2 | -4 | 4
CCc1ccccc1Nc1cc(C(=O)NCCCN(C)C2CCCCC2)c2ccccc2n1 | 1.4 | -1.5% | nt | nt | nt | 5
CCCCN=C1NN=C(c2ccc(C)c(C)c2)CS1 | -0.8 | 4.1% | -4.0 | nt | -22 | 33
CC(=O)[C@@H]1[C@@H](C(=O)c2ccc(F)cc2)[C@]2(C(=O)Nc3ccccc32)[C@H]2C=Cc3cc(F)ccc3N12 | 0.5 | 1.5% | -1.7 | -4 | -1 | 28
COc1ccc(NC(=O)C/C(C)=N/NC(=O)c2ccccn2)c(OC)c1 | -0.1 | -0.3% | 4.5 | ? | -24 | 17
O=C(NCCc1ccccc1)c1ccc2c(c1)N(Cc1ccccc1)CCS2 | 1.2 | -0.9% | 3.6 | 0 | -5 | 12
O=C(CSc1nnc(CNC(=O)c2ccccc2)o1)NCc1ccc(F)cc1 | 0.5 | -1.0% | -4.8 | 15 | -10 | 34
Cc1ccc(CN2CCN(Cc3ccc(OCCO)cc3)CC2CCO)o1 (configuration not stated) | -0.3 | 3.0% | -0.9 | 4 | 9 | -8
CC(c1ccccc1)N1CCN(C(=O)CCl)CC1 (configuration not stated) | 0.5 | 9.1% | 4.3 | nt | 4 | -13
CCN(CC(=O)Nc1ccc(OC)cc1)C(=O)C1CC(=O)N(Cc2ccccc2)C1 (configuration not stated) | -0.5 | 2.1% | -1.9 | 11 | 1 | -8
CC(=O)N1CCc2ccc(NC(=O)c3c(-c4c(Cl)cccc4Cl)noc3C)cc21 | 0.4 | 2.3% | -3.9 | 1 | 1 | 19
CCC(=O)c1ccc(OCC(=O)Nc2cc(S(=O)(=O)N3CCCCC3)ccc2N2CCN(CC)CC2)cc1 | 0.4 | -0.5% | -3.3 | -27 | ? | 10
CCOC(=O)c1sc(NC(=O)CCc2ccc(OC)cc2)nc1C | 0.3 | 6.5% | -1.6 | -5 | 2 | 7
CN(Cc1ccccc1)S(=O)(=O)c1ccccc1Br | 1.2 | -0.8% | 0.2 | 20 | 29 | 14
COc1cc(C(=O)N2CCCN(C)CC2)cc(OC)c1C | 1.0 | -2.9% | 0.5 | 6 | 3 | -19
N#CCc1nc(-c2cc3ccccc3oc2=O)cs1 | 0.3 | -0.3% | 1.7 | 0 | 9 | 17
CCc1cccc(C)c1NC(=O)c1ccc2c(c1)CCN2S(=O)(=O)CC | -1.1 | -1.0% | nt | nt | nt | 3
Cc1cc(=O)n2nc(N3CCC(C(=O)NCc4ccco4)CC3)sc2n1 | 0.0 | 0.4% | -4.9 | -17 | -1 | -2
CCc1ccc(Nc2ncnc3c2cnn3-c2cc(Cl)ccc2C)cc1 | -0.4 | 2.1% | nt | nt | nt | -2
Cc1cccc(OC(C)c2ccnc3nc(/N=C/N(C)C)nn23)c1 (configuration not stated) | 0.2 | 4.2%[38.3 µM] | -0.1 | 5 | -1 | -2
CN(C)S(=O)(=O)c1ccc(C(=O)Nc2ccn(C)n2)cc1 | 0.6 | ? | -6.6 | 7 | 6 | -12
COc1cccc(CN(C)C(=O)c2cc(COc3ccc4ncccc4c3)on2)c1 | 2.8 | 2.2% | -6.3 | -1 | -9 | 11
COc1ccccc1C(=O)C1CCCN(C(=O)c2ccccc2C(C)=O)C1 (configuration not stated) | -0.7 | -1.3% | -4.3 | 5 | 0 | 13
CN1C(=O)C(O)(CC(=O)c2cccc(-n3cccc3)c2)c2ccccc21 (configuration not stated) | 0.2 | 8.9%[38.3 µM] | -1.6 | -10 | -9 | -8
CN(Cc1ccccc1)C(=O)[C@@H]1CCCN1C(=O)[C@@H]1CCCN1C(=O)OC(C)(C)C | -0.9 | -0.4% | nt | 4 | -5 | nt
COc1ccc(/C=N/Nc2ccccc2)cc1Cn1nc(C)c([N+](=O)[O-])c1C | -0.5 | 3.2% | -0.8 | -5 | -8 | -20
CC(C)(C)C(=O)/C=C/c1ccc(Oc2ccccc2)cc1 | 1.5 | 3.2% | -4.2 | nt | 9 | 9
CCOc1ccc(-c2nc3c(s2)CCc2onc(-c4ccc(OC)cc4)c2-3)cc1 | -0.1 | 1.9% | -1.3 | 1 | 3 | 1
CC(=O)Nc1ccc(NC(=O)CSc2nnc(CNc3ccc(F)cc3)n2CC2CCCO2)cc1 (configuration not stated) | -0.5 | 0.7% | 2.1 | 14 | -4 | 14
COc1ccc(-n2c(=O)c3c4c(sc3n3c(=S)[nH]nc23)COC(C(C)C)C4)cc1 (configuration not stated) | 0.5 | -1.5% | -1.0 | 3 | -12 | 0
Cc1ccc(-c2ccccc2[C@@H]2C[C@H]3CN(C)C(=O)[C@]34CCCN24)o1 | -0.7 | -0.7% | -3.9 | -1 | 6 | 8
O=C(CNC(=O)c1ccccc1F)OCCCOC(=O)CNC(=O)c1ccccc1F | 0.4 | 1.2% | -1.2 | 8 | 6 | 0
O=C(CCN1C(=O)S/C(=C\c2ccccc2)C1=O)N1CCCCC1 | 0.5 | -1.3% | -3.2 | -3 | 11 | -15
O=C(CNc1ccc(F)cc1F)NC(=O)NCc1ccco1 | -0.1 | 12% | -3.6 | 1 | -4 | -7
CCCNC(=O)c1csc(Nc2cccc3ccccc23)n1 | -1.3 | 2.6% | 12 | nt | 5 | 14
CC(C)(C)OC(=O)N1CCC[C@H]1c1nnc(SCc2c(Cl)cccc2Cl)o1 | 1.5 | 6.1% | -0.4 | 2 | -1 | 11
CCOC(=O)C1(Cc2ccccc2)CCN(Cc2ccc(COC)o2)CC1 | -0.9 | 5.5% | -3.6 | 4 | 3 | 15
O=C(CCc1c[nH]c2ccccc12)NCCOc1ccccc1 | -0.6 | 0.9% | 2.1 | -22 | -12 | -6
OC(c1ccc(F)c(F)c1)c1nc(-c2ccoc2)cs1 (configuration not stated) | -0.5 | 1.2% | -8.5 | -4 | 2 | -19
Cc1ccc(C(=O)Nn2cnnc2)cc1 | 1.6 | -2.4% | 1.5 | 9 | 8 | 26
O=c1[nH]cnc2c1cnn2Cc1ccccc1 | 0.0 | -0.5% | -0.5 | 7 | 4 | 1
Cc1ccc2c(Cl)c(C(=O)NCC3CCCO3)sc2c1 (configuration not stated) | 0.1 | 12%[38.3 µM] | -1.5 | 0 | -2 | 9
COc1cccc(NC(=O)CN(C)C(=O)[C@@H]2CCCN2C(=O)c2cccs2)c1 | -1.1 | 1.2% | -0.1 | nt | -1 | -9
COc1cccc(C2=C(C(C)=O)Sc3nnc(C4CCCCC4)n3N2C(C)=O)c1 | 3.2 | 1.7% | nt | nt | nt | 17
O=C(N[C@H]1C/C=C\C[C@H](CC(=O)N(CCO)Cc2ccccc2)C(=O)N[C@H](Cc2c[nH]c3ccccc23)COC1=O)OCC1c2ccccc2-c2ccccc21 | -1.0 | 0.9% | -0.2 | -3 | -1 | 9
CC(C)NC(=O)c1cc(C2CCCCN2S(=O)(=O)c2ccc(F)cc2F)on1 (configuration not stated) | -0.7 | 0.5% | 4.9 | 8 | 6 | nt

One compound at a time, as listed above:
COc1cccc(NC(=O)CN(C)C(=O)[C@@H]2CCCN2C(=O)c2cccs2)c1 as listed: TRPML1 agonist = -1.1; PINK1 modulator = 1.2%; D2 ag = -0.1; CtBP-E1A inh = nt; Six1-Eya2 blk = -1; TRPML1 inh = -9
COc1cccc(C2=C(C(C)=O)Sc3nnc(C4CCCCC4)n3N2C(C)=O)c1 as listed: TRPML1 agonist = 3.2; PINK1 modulator = 1.7%; D2 ag = nt; CtBP-E1A inh = nt; Six1-Eya2 blk = nt; TRPML1 inh = 17
